# INS promoter inh: TRM-6 insulin promoter activity inhibition. inhibition, % at 2 µM. TRM-6 cells (human fetal islet line), insulin promoter-eGFP reporter, imaging; reporter expression induced with tamoxifen. 0.9% of 130,000 active;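 active = inhibition above the mean plus 3 SD, with well images judged a real hit on visual review, cut at about 60% in these data, passing the limit was not always enough; inconclusive = inhibition over the cutoff but images rejected on review; inactive = inhibition not above the cutoff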
# GALR2 agonist: activates the human galanin receptor 2; O43603; activation, %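 (tested at 5 µM)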; GALR2-expressing cells, agonist activation read-out; 0.48% of 140,000 active;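 active = above mean plus 3 SD of all compounds, about 5% in these data, not always enough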;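 note: 0% = vehicle buffer wells and 100% = reference agonist at full effect; tested in CHO reporter cells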
# Target sequence (O43603 whole entry, looked up): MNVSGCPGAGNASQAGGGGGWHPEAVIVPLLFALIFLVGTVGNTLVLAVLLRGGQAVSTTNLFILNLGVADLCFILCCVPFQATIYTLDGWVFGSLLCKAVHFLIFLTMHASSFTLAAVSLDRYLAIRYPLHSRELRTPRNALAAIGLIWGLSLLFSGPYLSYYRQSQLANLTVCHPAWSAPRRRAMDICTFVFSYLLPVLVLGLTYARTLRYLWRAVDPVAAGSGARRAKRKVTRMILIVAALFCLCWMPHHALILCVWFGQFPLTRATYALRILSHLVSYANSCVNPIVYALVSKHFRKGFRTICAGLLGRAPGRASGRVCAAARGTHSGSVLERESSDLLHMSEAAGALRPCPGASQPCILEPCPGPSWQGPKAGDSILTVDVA
# PKD1 inh: PKD1 (human) kinase inhibition. 0.056% of 200,000 active. Q15139. inhibition, %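 (about 10 µM by stock and volumes)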. PKD1 kinase fluorescence polarization assay;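 active = inhibition of 50% or more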;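 note: controls were vehicle for no effect and a reference inhibitor for full effect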
# HSV augment: HSV replication enhancement | HSV replication augmentation in cells, fold increase | maximum fold increase | 0.005% of 220,000 active | AID 1956;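 active = peak rise of 1.5-fold or more in the series; inconclusive = self-fluorescent or not available for retest; tested in PC3 cells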;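 note: first round at 10 µM; read as green reporter fluorescence; hits show the peak of a series up to 25 µM; 1 = signal of infected wells without compound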
# RGS16-Gao HTS: regulators of human RGS16-Galphao interaction; bead-based flow cytometry RGS16-Galphao binding, fluorescence; actives lie on both sides; 0.38% of 220,000 active; binding response (% of control), % at 10 µM; AID 1441;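 active = below 25% or above 175%, edge rows of some plates excepted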;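 note: Galphao activated by GDP with aluminum fluoride before binding; 100% = wells without compound and 0% = beads without RGS; some results beyond the cut were filed as inactive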
# Target sequence (O15492 whole entry, looked up): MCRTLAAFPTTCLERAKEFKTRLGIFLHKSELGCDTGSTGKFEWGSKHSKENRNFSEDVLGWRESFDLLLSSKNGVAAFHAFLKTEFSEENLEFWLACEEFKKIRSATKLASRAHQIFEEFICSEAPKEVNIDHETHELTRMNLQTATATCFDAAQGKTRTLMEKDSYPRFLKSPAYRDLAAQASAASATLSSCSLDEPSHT
# Target sequence (P09471 whole entry, looked up): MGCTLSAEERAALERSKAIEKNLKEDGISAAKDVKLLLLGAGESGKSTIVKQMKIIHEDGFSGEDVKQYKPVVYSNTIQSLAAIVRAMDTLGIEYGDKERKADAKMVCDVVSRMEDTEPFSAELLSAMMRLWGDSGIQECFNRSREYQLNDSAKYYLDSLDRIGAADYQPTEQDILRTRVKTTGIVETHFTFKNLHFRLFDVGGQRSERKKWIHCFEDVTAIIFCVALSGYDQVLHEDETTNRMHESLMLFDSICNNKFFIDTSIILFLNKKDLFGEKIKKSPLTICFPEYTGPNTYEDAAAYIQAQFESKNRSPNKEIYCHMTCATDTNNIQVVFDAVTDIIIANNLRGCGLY
# INS promoter inh cell count: also measured in INS promoter inh; calls as there; normalized cell count, %; measured here: cell count, toxicity; reference of the scale not given here;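 cells exposed to compound for 48 h; stained nuclei by imaging scaled within each plate; lower means fewer cells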
# HSV augment primary fold: recorded beside HSV augment, whose call it bears; fold increase; compound at 10 µM; measured here: primary screen fold increase 10 uM; tested in PC3 cells;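 GFP signal in the first replicate; 1 = infected wells without compound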
# The depositor's hits bear a star; i = inactive; ? = inconclusive; · = no result given.
canonical_smiles	GALR2 agonist	INS promoter inh	HSV augment primary fold	INS promoter inh cell count	HSV augment	RGS16-Gao HTS	PKD1 inh
O=C(Nc1nc(-c2ccc(Cl)s2)cs1)c1cccs1	-1.4	·	0.88	·	i	98	-7
CSc1nsc(/C=C/Nc2ccc(F)cc2F)c1C#N	·	·	·	·	?	108	11
CCOc1ccccc1N1CCN(CC(=O)NCCc2ccc(S(N)(=O)=O)cc2)CC1	·	·	0.99	·	i	104	-2
CN(C)C(CNC(=O)c1cc(S(=O)(=O)N(C)c2ccccc2)ccc1Cl)c1cccs1 (configuration not stated)	·	-93	1.1	132	i	96	2
Cc1nn(Cc2ccc(Cl)cc2Cl)c(C)c1NC(=O)Cn1nc([N+](=O)[O-])c(Cl)c1C	0.3	i	0.79	69	i	86	0
Cc1ccc(NC(=S)N2CCN(c3nccc(C(F)(F)F)n3)CC2)c(C)c1	·	·	1.2	·	i	105	·
NC1=NC[C@H](c2ccccc2)N1CCCCC1CCCCC1	·	·	0.55	·	i	107	·
Cc1ccc(C(=O)NCC(=O)OCc2csc(-c3ccccc3)n2)cc1	-0.7	·	1.1	·	i	84	2
CCOC(=O)C(N)CSC1CC(=O)N(c2ccc(C(=O)OC)cc2)C1=O (configuration not stated)	0.6	·	0.94	·	i	100	-2
CCC(C)NC(=O)NC(=O)N(C1CCCCC1)S(C)(=O)=O (configuration not stated)	-0.7	54	0.9	124	i	100	-8
Cc1cc(S(=O)(=O)NCc2ccco2)c(C)s1	-3.3	12	·	123	·	104	0
COc1ccccc1N(CC(O)Cn1nc(C)cc1C)S(=O)(=O)c1ccccc1 (configuration not stated)	·	·	0.96	·	i	95	-5
CCOC(=O)N1CCN(C(=O)CCCn2c(=S)[nH]c3ccccc3c2=O)CC1	-0.5	-50	1	124	i	·	-3
CCCC1=[N+](CC(C)=O)CCn2c(C)ccc21	·	-21	1	103	i	100	1
CCOC(=O)N1CCC(N2CC34C=CC(O3)C(C(=O)Nc3ccc(C(C)C)cc3)C4C2=O)CC1 (configuration not stated)	-0.7	·	0.97	·	i	103	-20
Nc1nc(SCC(=O)N2CCc3ccccc3C2)[nH]c(=O)c1-c1ccccc1	-2.5	75*	0.59	52*	i	77	-2
CCC1(C)OC(=O)N2CCc3c(C)[nH]c4c(C)ccc(c34)C21C (configuration not stated)	-1.8	·	0.73	·	i	103	-19
COc1ccc(NS(=O)(=O)c2cccc(-c3nnc(-c4ccccc4)o3)c2)cc1	-2.8	-207	0.95	60	i	103	-3
CS(=O)(=O)N(CC(=O)Nc1ccccc1C(=O)N1CCOCC1)c1ccccc1	-1.5	-252	1.1	51	i	103	-9
CC(/C=C/c1ccc2c(c1)OCO2)=N\NC(=O)c1ccccc1	·	0	0.83	117	i	105	8

# In a second layout: results already given.
# Under each structure – GALR2 agonist	INS promoter inh	HSV augment primary fold	INS promoter inh cell count	HSV augment	RGS16-Gao HTS	PKD1 inh
CCCC1=[N+](CC(C)=O)CCn2c(C)ccc21
  ·	-21	1	103	i	100	1
CCOC(=O)N1CCC(N2CC34C=CC(O3)C(C(=O)Nc3ccc(C(C)C)cc3)C4C2=O)CC1 (configuration not stated)
  -0.7	·	0.97	·	i	103	-20
Nc1nc(SCC(=O)N2CCc3ccccc3C2)[nH]c(=O)c1-c1ccccc1
  -2.5	75*	0.59	52*	i	77	-2
CCC1(C)OC(=O)N2CCc3c(C)[nH]c4c(C)ccc(c34)C21C (configuration not stated)
  -1.8	·	0.73	·	i	103	-19
COc1ccc(NS(=O)(=O)c2cccc(-c3nnc(-c4ccccc4)o3)c2)cc1
  -2.8	-207	0.95	60	i	103	-3
CS(=O)(=O)N(CC(=O)Nc1ccccc1C(=O)N1CCOCC1)c1ccccc1
  -1.5	-252	1.1	51	i	103	-9

# Next section.
canonical_smiles	GALR2 agonist	INS promoter inh	HSV augment primary fold	INS promoter inh cell count	HSV augment	RGS16-Gao HTS	PKD1 inh
O=C(CN(Cc1ccc2c(c1)OCO2)C(=O)CNS(=O)(=O)c1ccccc1)NCC1CCCO1 (configuration not stated)	0.2	20	0.94	92	i	103	13
NC(=O)c1sc(=S)n(-c2ccc(Br)cc2)c1N	-3.9	·	1	·	i	106	4
COc1cccc(-c2nnn(CC(C)=O)n2)c1	-1.5	58	1	114	i	102	-2
O=C(Oc1cccnc1)c1ccc(Cl)cc1	-0.6	·	0.83	·	i	104	1
COc1ccccc1NC(=O)c1c(Nc2ccccc2C)sc(C(=O)Nc2cccc(Cl)c2)c1N	-0.9	27	0.82	76	i	100	-15
O=C(COC(=O)CNC(=O)c1ccccc1)Nc1cccc(Br)c1	-0.9	·	1.2	·	i	100	-3
O=[N+]([O-])c1ccc(Sc2nc3ccccc3o2)c([N+](=O)[O-])c1	0.7	25	0.5	119	i	107	3
Nc1nc(CC(=O)CSc2ccc(Cl)cc2)nc(Nc2ccc(F)cc2)n1	-1.8	3	0.79	108	i	106	4
CCC1(CC)NC(=O)N(CC(=O)OCC(=O)Nc2ccc(F)c(F)c2F)C1=O	·	·	1.1	·	i	105	-6
C/C(N)=C(/C#N)C(=O)COC(=O)c1cc2c(s1)CCC(C)C2 (configuration not stated)	·	18	0.94	61	i	160	0
CC1(C)NC(=O)N(CCCCOc2ccccc2[N+](=O)[O-])C1=O	·	·	0.9	·	i	96	-1
CCCCCCC1CC(CSC(=N)N)OC1=O (configuration not stated)	-0.8	-52	0.76	116	i	103	-2
COC(=O)/C=c1/s/c(=C(/C#N)C(=O)N2CCOCC2)n(-c2ccccc2)c1=O	-0.5	13	1	131	i	100	-3
CC1CCc2c(C(=O)OCC(=O)Nc3cccc(S(=O)(=O)N4CCCCCC4)c3)csc2C1 (configuration not stated)	-0.1	-25	1	124	i	107	4
COc1ccc(C2C(C#N)=C(N)N(c3sc4c(c3C#N)CCCC4)C3=C2C(=O)CC(C)(C)C3)cc1OC (configuration not stated)	0.8	-8	1	83	i	100	-1
O=C(Cn1cc([N+](=O)[O-])cn1)Nc1ccc(Cn2cc(Br)cn2)cc1	-0.7	·	0.92	·	i	101	-11
CC(=O)N1CCN(C(=O)COc2ccc(N(C)S(=O)(=O)c3cccs3)cc2)CC1	·	·	0.99	·	i	100	5
Fc1ccc(CNc2nc3ccccc3n3cnnc23)cc1	-1.0	·	0.68	·	i	102	-8
CCOc1ccc(CCNC(=O)CN(C)S(=O)(=O)c2ccc3c(c2)CCC(=O)N3)cc1OCC	-0.7	-21	0.82	104	i	99	-1
c1ccc(-n2nnnc2SCc2cccc(CSc3nnnn3-c3ccccc3)n2)cc1	-2.1	19	1	86	i	101	-4
Cc1ccccc1N(CC(=O)NCCSc1ccccn1)S(=O)(=O)c1ccccc1	·	0	0.94	87	i	115	-5
Cc1ccc2c(Cl)c(C(=O)Nc3cccnc3)sc2c1	-0.7	0	0.83	131	i	103	-9
CCN(CC)C(=O)C1CCCN(c2ncnc3c2cnn3-c2cccc(C)c2)C1 (configuration not stated)	-0.3	-19	0.96	69	i	103	-10
CCOc1cc(S(=O)(=O)NCCc2ccccc2C)c(OCC)cc1-n1cnnn1	-1.2	-3	0.82	97	i	102	-3
COC(=O)C(C)N(C#N)c1nc(NC(C)C)nc(SC)n1 (configuration not stated)	-3.6	11	0.89	123	i	99	-5
C/C(CC(=O)Nc1ccccn1)=N\NC(=O)Cc1cccc2ccccc12	-1.8	-17	1.1	106	i	244	-1
Clc1ccc(Br)cc1-c1nc(-c2cccnc2)no1	-2.5	6	·	86	·	·	-11
Cc1ccc(NC(=S)N(CCCN2CCCC2)Cc2cccn2Cc2ccc(Cl)cc2)cc1Cl	·	-146	·	72	·	113	7
O=c1[nH]c(-[n+]2ccccc2)c(/C=N/N=C(\[O-])c2ccccc2)s1	·	·	0.94	·	i	108	·
COc1cccc(/C=N\NC(=O)c2cc(OCC(F)(F)F)ccc2OCC(F)(F)F)c1	-0.6	·	·	·	·	102	-12
Cc1cc(C)cc(OCC(=O)O/N=C(\N)c2ccccc2Cl)c1	·	·	0.94	·	i	100	·
CCOc1ccc2[nH]c(=O)c(C(c3nnnn3Cc3ccco3)N3CCC(C)CC3)cc2c1 (configuration not stated)	-1.7	-40	1	46	i	95	-7
Cc1cccc(Cn2c(Sc3nc(C)cs3)nc3c2c(=O)[nH]c(=O)n3C)c1	-1.9	·	0.69	·	i	100	1
CC(NC(=O)Cn1cc(C(F)(F)F)ccc1=O)c1ccc(F)cc1 (configuration not stated)	·	0	0.92	156	i	93	-2
CCc1nnc(NC(=O)c2ccc(COc3ccc(C)cc3)o2)s1	-3.5	11	1	80	i	99	-6
COc1ccc(CNCCC(c2ccccc2)C2CCOC(C)(C)C2)cc1 (configuration not stated)	·	·	0.78	·	i	103	-7
CC1CCCN(CCOCCOc2ccc(Br)cc2Cl)C1 (configuration not stated)	-0.2	-32	0.83	106	i	98	-7
O=C(Nc1scc(-c2ccccc2)c1C(=O)O)c1ccco1	-0.8	-24	0.9	110	i	165	-10
O=C(Nc1ccccc1N1CCOCC1)C1CCCCN1S(=O)(=O)c1ccccc1 (configuration not stated)	·	·	1.1	·	i	103	2
O=c1[nH]c(-c2ccccc2)c(-c2ccccc2)[nH]1	-1.6	9	0.95	84	i	97	-1
Cc1nn(C)cc1CN1CCCC(C(=O)c2ccc(-c3ccccc3)cc2)C1 (configuration not stated)	·	·	0.91	·	i	103	-3
Cc1ccc(-c2c(=O)n(OCc3ccccn3)c3ccccc3[n+]2[O-])cc1	-1.1	-20	0.92	86	i	98	-4
c1ccc(CSc2nnc(-c3sccc3-n3cccc3)o2)cc1	-1.9	2	0.95	81	i	100	-6
N#Cc1nc(COc2ccccc2)oc1N1CCN(c2cccc(Cl)c2)CC1	-1.5	38	0.96	107	i	100	1
Cc1ccc(C(=O)CCC(=O)O)cc1	-0.7	-5	1.1	45	i	104	2
CCCc1nc2ccccc2c(=O)n1CC(=O)c1ccccc1	·	·	1.2	·	i	99	7
O=C(NCc1ccco1)c1scc2c1OCCO2	0.1	43	0.98	142	i	103	-4
CCN(CC)c1nc(C)c(C(C)=O)cc1C#N	-2.2	·	1	·	i	97	-1
O=C(Nc1ccc(-c2csc(Nc3cccc(C(F)(F)F)c3)n2)cc1)c1cccc(C(F)(F)F)c1	·	·	0.64	·	i	109	·
CCC1(C)Cc2c(sc3c2c(=O)n(-c2ccccc2)c(=O)n3C)CO1 (configuration not stated)	-0.1	49	1.1	87	i	102	0

# More entries:
canonical_smiles	GALR2 agonist	INS promoter inh	HSV augment primary fold	INS promoter inh cell count	HSV augment	RGS16-Gao HTS	PKD1 inh
CCN(CC)S(=O)(=O)c1ccc(OC)c(NC(=O)c2cccc([N+](=O)[O-])c2C)c1	-2.1	67	1.1	86	i	·	23
CCCCC(CC(O)COCCC)c1n[nH]c(=S)n1-c1ccccc1 (configuration not stated)	·	22	0.94	69	i	29	-8
COc1ccccc1/C=N/N(C(C)=O)c1nc(-c2ccc(F)cc2)cs1	-1.9	·	0.93	·	i	96	11
Cc1nc(C)c(C(=O)N(c2ccc(C)c(C)c2)C(C(=O)NCc2ccco2)c2ccccc2)s1 (configuration not stated)	-1.6	-32	1.1	96	i	102	4
COC(=O)c1ccc(COc2nc(C)cc(C)c2C#N)o1	-1.7	-228	0.86	37	i	101	-6
COc1cc(C(=O)N/N=C/c2sc(=O)n(-c3ccccc3)c2Cl)cc(OC)c1OC	-0.5	·	0.63	·	i	106	2
Cc1ccccc1CNC(=O)CCc1ccccc1	·	·	0.93	·	i	91	0
O=C(Nc1cccnc1)c1cc(F)c(F)cc1Cl	·	-69	1	115	i	104	5
COc1ccc(C(=O)c2ccccc2)cc1	·	·	0.93	·	i	110	2
O=C(CSc1nnc(-c2cccnc2)o1)OC1CCCCC1	0.9	62	1	108	i	101	-1
CC1CCN(c2ccc(C(=O)OCC(=O)NCCN3C(=O)CSC3=O)cc2[N+](=O)[O-])CC1	·	·	0.9	·	i	103	-3
CS(=O)(=O)Nc1ccc(C2=NN(S(=O)(=O)c3ccccc3)C(c3cccs3)C2)cc1 (configuration not stated)	·	-115	1.3	103	i	99	2
O=C(O)c1cc(CN2CCOCC2)oc1-c1ccccc1	-2.0	-200	1	63	i	105	-2
COC(=O)c1cc2sc(Cl)cc2n1CC(=O)NCCC(C)C	-1.8	-9	0.92	123	i	103	1
O=C(CSc1nc2[nH]ncc2c(=O)n1-c1ccccc1)NCCc1ccccc1	·	-51	0.94	69	i	100	-7

# Bioassay records as filed in PubChem.
